High-throughput results deposited in PubChem by National Center for Advancing Translational Sciences (NCATS).
PK Bst = Pyruvate Kinase; AID 361, 2006; partly purified Bacillus stearothermophilus pyruvate kinase, luminescence ATP production; ribose 5-phosphate activator present at AC10; 51,000 compounds, 1.2% hits; Potency, µM; in the data active means potency below about 11 µM; inconclusive means mostly about 12 µM to 25 µM; inactive means weaker than that;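 the screen sought inhibitors and activators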;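 further: potency means the concentration at half of the fitted maximal effect; scaled between full activation by ribose 5 phosphate and full inhibition by luteolin; about four in five hits inhibit and the cells do not say which; series up to 57 µM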
YjeE inh = qHTS Assay for Inhibitors of YjeE | tRNA threonylcarbamoyladenosine biosynthesis protein TsaE (Escherichia coli (strain … | purified YjeE, fluorescence polarisation of a bound ADP probe | Potency, µM | 71,000 compounds, 0.05% hits; active = well fitted falling curve; inconclusive = weaker or top-dose-only fall, or a rising curve; inactive = flat or poorly fitted curve;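 further: top concentration of the series not given in the record; excess ADP was the control for the full effect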
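Purified YjeE (10 uM) with BODIPY Texas Red-labeled ADP probe (2 uM); compounds pin-transferred, 15 min at room temperature. Binding inhibition read as decreased fluorescence polarization; ADP titration as control.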
* marks the source's active call; other numbers are inactive results; i = inactive; ? = inconclusive; . = no result given.

Below each compound: PK Bst, YjeE inh
> O=C(c1cccc(F)c1)N1CCC[C@@]2(CCN(Cc3nccs3)C2)C1
 : ., i
> CCOC(OCC)P(=O)(C(C)C)C(C)C
 : ., i
> C/C(N)=C(/C#N)C(=O)CSc1nnc(Cc2ccccc2F)n1N
 : >57, i
> CCOC(=O)CC(=O)CSc1ccc2nnc(-c3ccc(F)cc3)n2n1
 : >57, i
> COc1cccc(NC(=O)CSc2nnc(-c3ccc(C)cc3)o2)c1
 : ., i
> CCN(CC)CCCn1c(C)cc2c(c1=O)C(c1ccc(OC)c(OC)c1OC)C(C#N)=C(N)O2 (stereo not drawn)
 : >11.4, .
> CCNc1ncc2nc(-c3ccc(F)cc3)c(=O)n(CCc3ccccc3)c2n1
 : ., i
> Cn1c(=O)c2c(nc(N3CCN(Cc4ccccc4)CC3)n2CCCc2ccccc2)n(C)c1=O
 : >57, i
> CCC1CCCCN1C(=O)CSc1nnc(-c2cccc(Cl)c2)o1 (stereo not drawn)
 : ., i
> CCOC(=O)c1cc2sccc2n1CC(=O)Nc1ccc(OC)c(OC)c1
 : >57, i
> CN(CCNS(=O)(=O)c1ccc2c(c1)oc(=O)n2C)Cc1ccccc1
 : ., i
> CCOC(=O)c1sc(NC(=O)CSc2nnnn2-c2ccccc2)c(C(=O)OCC)c1C
 : >57, i
> Cn1nnnc1SCC(=O)Nc1ccccc1C(=O)NCc1ccccc1
 : ., i
> c1nc(NC2CCCC2)c2[nH]cnc2n1
 : ., i
> CCOc1ccc2cc(C#N)c(SCC(=O)N3CCOCC3)nc2c1
 : i, i
> CCCn1c(SCC(=O)NCc2ccco2)nc2c1c(=O)n(C)c(=O)n2C
 : >57, i
> COc1ccccc1-c1noc(-c2ccncc2)n1
 : ?, i
> c1ccc2c(c1)CC1(CCCC1)n1nnnc1-2
 : >57, i
> Cc1cc(C)n(CC(O)CN2c3ccccc3Sc3ccccc32)n1 (stereo not drawn)
 : ., i
> O=C(c1ccco1)N1CCN(c2ccc(S(=O)(=O)N3CCCC3)cc2)CC1
 : >57, i

Reprinted from the part before: two compounds, then new ones.
Below each compound: PK Bst, YjeE inh
> Cc1cc(C)n(CC(O)CN2c3ccccc3Sc3ccccc32)n1 (stereo not drawn)
 : ., i
> O=C(c1ccco1)N1CCN(c2ccc(S(=O)(=O)N3CCCC3)cc2)CC1
 : >57, i
> Cc1ccc(S(=O)(=O)NCC(=O)OCC(=O)Nc2ncc(Cl)cc2Cl)cc1
 : >57, i
> O=C(c1ccccc1)N1CCN(C(=O)N2CCCCC2)CC1
 : >57, i
> Cc1ccc2oc(=O)c3cnn(CC(=O)NCCc4ccsc4)c3c2c1
 : ., i
> COc1ccc2cnn(-c3ccccc3)c(=O)c2c1OC
 : >57, i
> CCOC(=O)N1CCC(N2C(=O)c3ccccc3C2Nc2cccnc2)CC1 (stereo not drawn)
 : ., i
> Cc1cc(N=CC2=C(O)CCCC2=O)no1
 : ., i
> COc1ccc2c(c1)c1nnc(SC)nc1n2C
 : >57, i
> CN=c1oc2ccc(Cl)cc2cc1C(N)=O
 : i, i
> CCOC(=O)N1CCN(CC(=O)Nc2c(C(=O)OC)[nH]c3cccc(Cl)c23)CC1
 : >57, i
> O=C(Nc1ncc2c(n1)CC(c1ccccc1)CC2=O)c1ccco1 (stereo not drawn)
 : >57, i
> Brc1ccccc1-c1ccccc1
 : ., i
> CCCCCn1c(=O)[nH]c2cc(C(=O)NCc3ccc4c(c3)OCO4)ccc2c1=O
 : >57, i
> C=C1c2cc(CC)ccc2NC(=O)N1c1ccc(C)cc1
 : ., i
> CCc1ccccc1-n1cnc2cc(C(=O)O)ccc21
 : >57, i
> CN(C)C[C@H]1CCC2=C(C1=O)C(c1ccc(Cl)c(Cl)c1)C1=C(CC[C@H](CN(C)C)C1=O)O2
 : ., i
> Cc1cc(C)n(-c2nc3c(c(=O)n(C)c(=O)n3C)n2C)n1
 : >57, i
> Cc1oc(-c2ccccc2F)nc1CS(=O)(=O)CC(=O)N1CCc2ccccc21
 : ., i
> CC1CCN(C(=O)CSc2ccc3nnc(-c4ccccc4)n3n2)CC1
 : >57, i
> COc1ccccc1NC(=O)CSc1nnc(-c2ccc(C)cc2)o1
 : >57, i
> c1cc2c3c(c1)c1c(n3CCNC2)CCCC1
 : ., i
> COc1ccc(C(=O)NCc2nnc(SCC(=O)N3CCc4ccccc43)o2)cc1OC
 : >57, i
> CCC(=O)Oc1ccc(C2N(C(=O)CC)CCN2S(=O)(=O)c2ccc(C)cc2)cc1OC (stereo not drawn)
 : >57, i
> Cn1c(=O)[nH]c(=O)c2c1nc(Br)n2CC(O)COCc1ccccc1 (stereo not drawn)
 : >57, i
> CC(=O)NC(=S)c1c(N)n(Cc2ccccc2)c(=O)n(C)c1=O
 : >57, i
> CCOC(=O)c1ccoc1CSCC(=O)N1CCN(S(=O)(=O)c2ccc(C)cc2)CC1
 : >57, i
> CCC(=O)c1cc(F)c(N2CCN(C(=O)c3ccco3)CC2)cc1C
 : ., i
> COc1ccc(OC)c(C2SCCN2S(=O)(=O)c2cccc(C(F)(F)F)c2)c1 (stereo not drawn)
 : >57, i
> COCCN1C(=O)c2oc3ccccc3c(=O)c2C1c1ccc(C(=O)OC)cc1 (stereo not drawn)
 : ., i
> CC(=O)Oc1ccc(-c2nc(-c3cccnc3)no2)cc1
 : i, i
> O=C(Nc1ccc2c(c1)oc1ccccc12)c1ccc(Br)o1
 : ., i
> Cc1ccc(Cn2c(NCCCn3ccnc3)nc3c2c(=O)n(C)c(=O)n3C)cc1
 : >57, i
> N#Cc1c(NC(=O)CSc2nnc(-c3ccccc3O)n2-c2ccccc2)sc2c1CCCC2
 : >57, i
> O=C(CCn1c(=O)[nH]c2ccsc2c1=O)N1CC(=O)N(CCc2ccccc2)C(=O)C1
 : >57, i
> O=P(O)(c1ccc(Cl)cc1)c1ccc(Cl)cc1
 : ., i
> Cc1c(-c2nn(C)c(=O)c3ccccc23)oc2ccc(F)cc2c1=O
 : >57, i
> Oc1c(I)cc(Cl)c2cccnc12
 : >11.4, i
> CN1CCc2c(sc3c2c(=O)n(-c2ccccc2)c2nnc(SCc4ccccc4)n32)C1
 : >25.6, .
> Cc1cc(C)cc(N2C(=O)C3CC=CCC3C2=O)c1 (stereo not drawn)
 : >57, i
> CCN1CCN(Cc2nc3c(c(=O)n(C)c(=O)n3C)n2Cc2ccc(Cl)cc2Cl)CC1
 : ., i
> Nc1ccc(S(=O)(=O)O)cc1
 : ., i

Entries of single compounds, looked up by structure. Screens in order: PK Bst | YjeE inh
`CCOC(=O)c1ccoc1CSCC(=O)N1CCN(S(=O)(=O)c2ccc(C)cc2)CC1` across the screens: >57 | i
`CCC(=O)Oc1ccc(C2N(C(=O)CC)CCN2S(=O)(=O)c2ccc(C)cc2)cc1OC` (stereo not drawn) across the screens: >57 | i

Other structures
Below each compound: PK Bst, YjeE inh
> Nc1nc2n(n1)C(c1ccco1)CC(c1ccc(F)cc1)N2 (stereo not drawn)
 : ., i
> O=S(=O)(/N=S1/CC=CCN1S(=O)(=O)c1ccccc1)c1ccccc1 (stereo not drawn)
 : >57, ?
> COc1cc(C2C3C(=O)N(Cc4ccccc4)C(=O)C3ON2c2ccccc2)cc(OC)c1O (stereo not drawn)
 : >57, i
> N#Cc1cc2c(nc1SCc1ccncc1)CCC2
 : >57, i
> O=C(Nc1cccc(OCC(=O)N2CCOCC2)c1)C1CCCCC1
 : >57, i
> CCc1cc(=O)oc2c(CN3CCN(C)CC3)c(O)c(Cl)cc12
 : >25.6, .
> CCc1ccc(S(=O)(=O)NCc2csc(C)n2)s1
 : >57, i
> Cc1ccc(C(=O)N2CCN(c3ccccc3)CC2)cc1S(=O)(=O)N1CCCC1
 : >57, i
> CC(C)C(=O)Nc1ccc(NC(=O)c2ccco2)cn1
 : ., i
> CC(C)C(=O)Nc1cccc2nsnc12
 : >57, i
> C=CCC(Nc1ccco1)c1ccccc1 (stereo not drawn)
 : >57, i
> CCOC(=O)N1CCC(N(C(=O)Nc2ccc(Cl)c(Cl)c2)C(C)CC)CC1 (stereo not drawn)
 : >57, i
> CCOC(=O)c1c(C)[nH]c(C(=O)Cn2c(=O)c3c(ncn3CC)n(Cc3ccccc3)c2=O)c1C
 : >57, i
> Cn1cccc1C(=O)N1CCC2(CCN(Cc3ccccc3)CC2)CC1
 : ., i
> CC1CCN(S(=O)(=O)c2cccc(C(=O)Nc3nccs3)c2)CC1
 : >57, i
> COc1nnc(-c2ccc(N3CCOCC3)c(NC(C)=O)c2)c2ccccc12
 : >57, i
> CC(C)NC(=O)N1CC[C@@]2(CCCN(C(=O)c3csnn3)C2)C1
 : ., i
> CCn1c(CCNC(=O)c2ccc(OC)c(OC)c2)nc2ccccc21
 : >57, i
> CC(C)C[C@@H](CC(=O)N[C@@H](CCC(=O)O)CC(=O)O)NC(=O)[C@@H]1CNCC[C@H]1NC(=O)C[C@@H](NC(=O)C[C@H](Cc1c[nH]c2ccccc12)NC(=O)[C@@H]1CCCC[C@H]1N)C(C)C
 : ., i
> COc1ccc(S(=O)(=O)N(C)CC(=O)N2CCC(C)CC2)cc1Cl
 : >57, i
> Cc1ccc(S(=O)(=O)c2c(C)nn(C(C)(C)C)c2OC(=O)C2CCCC2)cc1
 : >57, i
> COc1nc(Oc2ccc(=O)[nH]n2)nc(N2CCOCC2)n1
 : >57, i
> Cc1ccccc1-n1c(=O)cc(N2CCN(Cc3ccccc3)CC2)[nH]c1=O
 : ., i
> COc1ccc(-n2nnnc2SCC#CCO)cc1
 : >57, i
> CCOC(=O)C1CCCN(c2c(NCC3CCCO3)c(=O)c2=O)C1 (stereo not drawn)
 : ., i
> COc1ccc(CNc2ncnc3ccc(-c4ccoc4)cc23)c(OC)c1
 : ., i
> Cc1ccc(C(=O)N2CCCCCC2)cc1Br
 : ?, i
> O=c1c2ccccc2c(/C=N/n2cnnc2)c(O)n1-c1ccccc1F
 : >57, i
> CCS(=O)(=O)N1CCN(C(=O)c2cccnc2)CC1
 : ., i
> COc1ccc2c(c1)nc(N)n2Cc1ccccc1
 : >25.6, .
> Cn1c(SCc2ccc(C#N)cc2Cl)nc2ccccc21
 : ., i
> CCn1c(=NC(=O)CSCC(=O)Nc2nccs2)sc2ccccc21
 : >57, i
> CCOC(=O)N1CCN(C(=O)CSc2nnc(-c3cccc(OC)c3)o2)CC1
 : >57, i
> CCOc1cc(C#N)c(NC(=O)Cn2nnc3ccccc32)cc1OCC
 : >57, i
> O=C(CN1CCNCC1)Nc1ccccc1Cl
 : >57, i
> Cc1csc(SCc2nnc(-c3ccccc3Br)o2)n1
 : ., i
> COc1ccccc1NC(=O)CSc1nnc(-c2ccoc2C)n1CCc1ccccc1
 : >57, i
> COc1ccc(-c2ccc(C(=S)N3CCN(C(C)=O)CC3)o2)cc1
 : i, i
> Cc1ccccc1Nc1nc(N)nc(CN(C)c2ccccc2)n1
 : >57, i
> COc1ccccc1-c1nnc2sc(-c3cc4ccccc4o3)nn12
 : ., i
> CC(C)c1cccc2cc3c(nc12)-c1cccc(=O)n1C3
 : ., i
> O=C(CSc1nc(-c2ccccc2)cc(C(F)(F)F)n1)NCCN1CCOCC1
 : >57, i
> Cc1ccc(OCC(=O)Nc2ccc(-c3nc4ncccc4o3)cc2)c(C)c1
 : >57, i
> CCOCC(=O)N1CCCC(C(=O)OCC)C1 (stereo not drawn)
 : >57, i
> CCOC(=O)c1c(C)c(C(=O)NCCOC)c(C)n1CC
 : >57, i
> Cc1ccc2cc(-c3noc(C(C)(C)C)n3)c(=O)[nH]c2c1
 : ., i
> CNc1ncnc2ccc(-c3ccccc3OC)cc12
 : ., i
> CC1(c2cnc(Nc3ccccc3)s2)CCC(=O)O1 (stereo not drawn)
 : >25.6, .
> Cc1ccc(C)c(Oc2nnnn2-c2ccccc2)c1
 : ?, i
> Cc1ccc(SCCNS(=O)(=O)c2ccc(F)cc2)cc1
 : ., i
> CCCS(=O)(=O)n1nc(-c2ccc(Br)cc2)cc1N
 : ., i
> NS(=O)(=O)c1ccc(NCc2nc3ccccc3[nH]2)cc1
 : ., i
> COc1ccc(C)cc1NC(=O)c1cnc2sccn2c1=O
 : ., i
> CN(C)c1nc(Oc2ccc(=O)n(-c3ccccc3)n2)nc(N2CCOCC2)n1
 : >57, i
> Cc1cc(C(=O)CSCc2nnc3n(CCC(C)C)c(=O)c4ccccc4n23)c(C)n1C
 : >57, i
> Cc1nc2n(n1)C(c1ccccc1)C1=C(CC(c3ccco3)CC1=O)N2 (stereo not drawn)
 : >57, i
> Cc1cccn2c(=O)c3cc(C(=O)N4CCN(c5ccccc5)CC4)n(C)c3nc12
 : >57, i
> CCn1c(CSc2nnc3ccccn23)nc2cc(C(=O)O)ccc21
 : >57, i
> O=C(c1ccccc1)C(CCC(CN1CCOCC1)C(=O)c1ccccc1)CN1CCOCC1 (stereo not drawn)
 : >25.6, .
> O=C(NCCN1CCOCC1)c1ccc(Cl)c(S(=O)(=O)N2CCCCCC2)c1
 : >57, i

(more compounds)
Below each compound: PK Bst, YjeE inh
> c1ccc(C[n+]2cccc(-c3cc4ccccc4[nH]3)c2)cc1
 : ., i
> CC/C(=C\C(=O)c1ccncc1)Nc1ccc(O)cc1
 : ., i
> CCn1c(CNc2ccc(F)cc2)nnc1SCC(=O)N1CCCc2ccccc21
 : >57, i
> Cc1cc(C)cc(-n2nnc(C(=O)NCc3ccccc3)c2N)c1
 : >57, i
> CCc1nnc(NC(=O)CSc2nnc(-c3cccnc3)n2CCc2ccccc2)s1
 : >57, i
> Cn1c(=O)[nH]c(=O)c2c1nc(NC1CCCCC1)n2Cc1ccccc1
 : >57, i
> O=C(Nc1ccc(S(=O)(=O)NCCc2ccccc2)cc1)c1ccco1
 : >57, i

Some of the compounds tested. The share of hits here may be higher or lower than overall.
